Compound activity: PubChem BioAssay, several laboratories
CatB mixtures: inhibitors of human cathepsin B in compound mixtures; 0.06% of 62,000 active; Purified cathepsin B, AMC dipeptide fluorescence; inhibition, %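 (ten-compound pools at 5 µM per compound and 50 µM total)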; in the data active = inhibition above about 22%, passing the limit was not always enough;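 also: 0% = enzyme without compound and 100% = no enzyme blank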
AP ELISA ortho: orthogonal test for alternative complement pathway inhibitors | 0.08% of 62,000 active | AID 1235 | inhibition, % at 5 µM | Human serum alternative complement pathway, LPS-coated ELISA, C3 deposition; tested in compound mixtures;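 active = inhibition above 30% in each of the two pooled mixtures holding the compound, so the lower value exceeds 30%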;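 also: 0% = serum in Mg-EGTA without compound and 100% = EDTA serum blank; some compounds past the cut are filed as inactive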
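Test system: human serum alternative complement pathway, C3 deposition on LPS-coated wells; also added: Plate-bound LPS; doses: 5 µM per compound in ten-compound mixtures; schedule: 1 h at 37 °C; detection: Anti-C3 ELISA, OD 450 nm; evaluation: percent inhibition of C3 deposition onto LPS; repeats: two pool placements per compound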
RORa activator: activators of human nuclear receptor RORA. P35398. CHO-K1 Gal4-RORA LBD luciferase reporter, luminescence; percent increase over mock-subtracted basal signal. activation, % at 10 µM. 1.5% of 65,000 active. AID 560;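 active = activation above the mean of all tested compounds plus 3 SD, cut at about 49% in these data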;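 also: 0% = DMSO-treated RORA cells and 100% = added signal equal to DMSO minus mock-transfected cells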
CatB inh: human cathepsin B inhibition; purified cathepsin B, fluorogenic substrate, fluorescence; inhibition, %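 (tested at 10 µM)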; 0.1% of 63,000 active; in the data active = inhibition above about 21%;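 also: 0% = enzyme with no compound and 100% = no enzyme blank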
E coli RNAP: blocks E. coli RNA polymerase transcription; P0A8V2; fluorescence transcription assay; inhibition, %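 (tested at 10 µM)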; 0.2% of 62,000 active; in the data active = inhibition above about 20%;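 also: 0% = enzyme without compound and 100% = no enzyme blank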
CatS block: inhibitors of human cathepsin S; 0.06% of 62,000 active; recombinant cathepsin S, AMC dipeptide fluorescence, pooled mixtures; inhibition, %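 (tested at 5 µM per compound within 10-compound mixtures)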; AID 501; P25774; in the data active = inhibition above about 32%, passing the limit was not always enough;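 also: 0% = enzyme without compound and 100% = blank without enzyme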
An asterisk follows results filed as active; · = no result given. This is a subset. The share of hits here may be higher or lower than overall.

The line under a structure holds: CatB mixtures, AP ELISA ortho, RORa activator, CatB inh, E coli RNAP, CatS block
Cc1nn(-c2ccc(C(=O)O)cc2)c(=O)c2ccccc12
 : 7, 27, 11, ·, 0, -6
COc1cc(OC)c(OC)cc1/C=N/n1c(C)nnc1C
 : -7, 16, -5, -1, -10, -12
COc1ccc2cc(C#N)c(N3CCN(Cc4nnnn4CCC(C)C)CC3)nc2c1
 : 8, 9, 12, -1, 8, 6
CC1CCN(C(=S)c2ccccc2O)CC1
 : 3, 1, 12, 4, 14, 13
O=C(NCCCN1CCCCC1)C1(S(=O)(=O)c2ccc(Cl)cc2)CC1
 : 2, 8, -5, -1, 4, 3
Cc1nc2cc(C(=O)O)ccc2n1-c1ccc(F)cc1F
 : 0, 5, -27, -1, 7, 13
O=C(NCc1ccco1)c1cc2nc(-c3cccs3)cc(C(F)(F)F)n2n1
 : -2, 11, -11, 1, -6, 5
COc1cc(CC(=O)O)c(C(C)=O)cc1OC
 : 3, -4, -20, 2, -3, 3
O=S(=O)(c1cccc2cccnc12)N(CCO)CCO
 : 4, 14, 5, -1, 4, -3
Cc1cccc(Cn2c(=O)n(Cc3ccco3)c(=O)c3ccccc32)c1
 : 4, -4, -16, 2, 4, 4
CCOC(=O)c1ccc(N2CC(O)=C(c3nc4ccccc4c(=O)[nH]3)C2=N)cc1
 : ·, ·, -8, -2, 1, ·
COc1ccccc1N1CC(O)=C(c2nc3ccccc3c(=O)[nH]2)C1=N
 : 7, 18, 5, -2, 2, 1
COC(=O)COc1cccc(NC(=O)COc2ccccc2)c1
 : 4, 12, 19, 2, 2, -8
CCOC(=O)c1sc(NC(=O)CSc2ncccn2)c(C#N)c1C
 : 2, 9, -3, -1, 2, 5
CN(C)CCCN(CCCNC(=O)/C=N/O)Cc1ccccc1
 : 7, 17, -14, -2, 6, 0
CCN1CCN(C(=O)C2CC(c3ccc(F)cc3)=NO2)CC1 (stereo not given)
 : 0, -1, 23, 2, 8, 15
O=C(NCCCn1ccnc1)c1cc(C2CC2)on1
 : -1, 3, 1, 2, 7, 6
N#Cc1c(NC(=O)CSCC(=O)O)sc2c1CCCC2
 : 0, -5, 4, 1, 8, 1
CC(=O)NC(Cc1ccccc1)C(=O)NC1CCN(C(=O)c2cnccn2)CC1 (stereo not given)
 : 6, 8, -8, 6, 6, 14
COc1ccc(C)cc1NC(=O)c1ccc(S(=O)(=O)N2CCOCC2)cc1
 : -5, -8, 6, 1, 1, 6
Cc1cc(NC(=O)C2CC(c3ccc(F)cc3)=NO2)no1 (stereo not given)
 : 2, 14, -4, 3, 6, -3
COc1ccc(CNc2nc(SC)n[nH]2)cc1OC
 : 5, -3, 2, 1, 6, 2
O=C(COc1ccccc1Cl)NC(=O)NC1CCCC1
 : 4, 0, 20, -3, 7, -8
COc1cccc(C2NC(=O)NC(C)=C2C(=O)Nc2cccc(C)c2C)c1 (stereo not given)
 : 9, 1, -16, 3, 13, 18
Cn1c(=O)c2c(nc(NCCCO)n2Cc2cccc(Br)c2)n(C)c1=O
 : 9, 2, 8, -1, 10, 14
CC(=O)C1=C(C)Nc2ncnn2C1c1cccc(OCc2ccccc2)c1 (stereo not given)
 : 8, 16, 1, 7, 1, -5
OC1CCN(C(c2ccc3ncccc3c2)c2nnnn2C2CCCCC2)CC1 (stereo not given)
 : 1, 0, -1, 3, 13, 6
O=C(CC1Oc2ccccc2NC1=O)NCc1ccc(Cl)cc1 (stereo not given)
 : -1, 2, -2, 0, 4, -1
Cc1cccc(Cn2c(NCCO)nc3c2c(=O)n(C)c(=O)n3C)c1
 : -1, 27, -10, 10, ·, 2
